Bioassay records deposited in PubChem by National Center for Advancing Translational Sciences (NCATS).
HSD17B inh = qHTS Assay for Inhibitors of HSD17B4, hydroxysteroid (17-beta) dehydrogenase 4; recombinant HSD17B10, NADH fluorescence kinetic; many of its hits are not listed in these tables; Potency, µM (doses to about 57.1 µM), for inactives: at the top dose activity change, negative = inhibition, usual class: inhibitors; 7.6% of 75,000 active; AID 893, 2007; active = well fitted inhibition curve with a large enough effect; inconclusive = small, poorly fitted or top-dose-only effect; inactive = no such curve, though single readings can be large or run the other way;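 also: the protocol describes HADH2 (HSD17B10) and not the HSD17B4 of the title; nearly all actives have a fitted effect of over 70% in size; most hits overshoot -100% by far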
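Enzyme plus compound, 15 min room temperature; substrate mix added (NAD+ 1 mM, beta-hydroxybutyryl-CoA 90 uM final); plates read kinetically for NADH fluorescence. HADH2 was His-tagged, E. coli-derived, 20 nM.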
Active calls of the source: *; i = inactive; u = inconclusive; & = joins results of further samples; [ ] = another dose, or the depositor's remark. % is scaled to controls: 0 for no effect and ±100 for the full control effect; potency is read from the fitted curve at half-maximal effect. Not all compounds are listed, so the mix of outcomes need not match the whole.

#	canonical_smiles	HSD17B inh
1	Cc1cccc(-n2c(=O)[nH]c3c(C(N)=O)nc(C(C)C)nc32)c1	25µM*
2	CCOC(=O)C1CCN(C(C(=O)NC2CCCCC2)c2ccc(OC)cc2)CC1 (centres undefined)	14%
3	CSc1nnc2c(n1)OC(c1ccc(C(=O)O)cc1)N(C(C)=O)c1ccccc1-2 (centres undefined)	-5%
4	COC(=O)CSc1nnc(-c2ccncc2)o1	3%
5	CC(=O)Nn1c(C)nnc1-n1nc(C)cc1C	1%
6	COc1ccc(CCNC(=O)CCn2c(=O)oc3ccccc32)cc1	-5%
7	CC1CCC(NC(=O)CN2CCCN(Cc3ccc(F)cc3Cl)C2=O)CC1 (centres undefined)	3%
8	CSc1nc(C)cc(SCCO)n1	3%
9	C=C(C)C(=O)OC	-4%
10	COc1ccc(OC)c(CNC(=O)C2CCN(S(=O)(=O)N3CCCC3)CC2)c1	7%
11	CCC(Sc1nc(C)cc(=O)[nH]1)C(=O)Nc1sc2c(c1C#N)CCCC2 (centres undefined)	-8%
12	O=C(CSc1nnc(Cc2ccccc2)n1-c1ccc(Cl)cc1)N1CCOCC1	8%

Reformatted with each value named: entries from further up
7	CC1CCC(NC(=O)CN2CCCN(Cc3ccc(F)cc3Cl)C2=O)CC1 (centres undefined)
  HSD17B inh: 3%
8	CSc1nc(C)cc(SCCO)n1
  HSD17B inh: 3%
9	C=C(C)C(=O)OC
  HSD17B inh: -4%

Next results:
#	canonical_smiles	HSD17B inh
13	COc1cccc(-c2cc(NCCc3c[nH]c4ccc(OC)cc34)ncn2)c1	-5%
14	COc1ccc(C(=O)Nc2ccc(S(=O)(=O)NCc3ccco3)cc2)cc1OC	4%
15	COc1ccccc1CNC(=O)c1c(O)c2cc(OC)c(OC)cc2[nH]c1=O	16%
16	COC(=O)CCN1CCC(C(N)=O)CC1	0%
17	O=C1NC(=O)C2(CCC(C(=O)O)C2)N1 (centres undefined)	12%
18	Cc1ccc2cc(CN(Cc3cccs3)Cc3nnnn3CC3CCCO3)c(=O)[nH]c2c1 (centres undefined)	-27%
19	O=C(c1ccc(CN2CCOCC2)cc1)N1CCN(Cc2ccccc2)CC1	1%
20	O=C(CSc1n[nH]c(-c2ccc(S(=O)(=O)NC3CCCCC3)cc2)n1)N1CCCC1	25µM*
21	Nc1nc(N)nc(-c2ccccn2)n1	10%
22	COc1ccc2nc(SCC(=O)Nc3ccc4c(c3)OCCO4)[nH]c2c1	-16%
23	COC(=O)c1sccc1NC(=O)c1ccncc1	30%[activator]
24	Cc1ccc(-c2cc(C(=O)N3CCCC3)no2)cc1	6%
25	O=C(NC1(C(F)(F)F)NC(=O)N(Cc2cccnc2)C1=O)c1cccs1 (centres undefined)	-4%
26	CC(=O)Nc1ccc(OCC(O)CN2CCN(Cc3ccccc3)CC2)cc1 (centres undefined)	4%
27	COc1ccc(-c2nnc(-c3ccc(N(C)C)cc3)o2)cc1	3.2µM*
28	CC(=O)c1cccc(NC(=O)NCCS(C)=O)c1 (centres undefined)	3%
29	Cc1ccc(C(=O)Nc2ccc3c(c2)ncn3C)cc1	5%
30	CCn1c2ccccc2c2nnc(SCc3ccccc3)nc21	-1%
31	Cc1cc(C(C)(C)C)cc(S(=O)(=O)NCC(=O)O)c1C	1%
32	COC(=O)CSc1nc2c(c(=O)[nH]c(=O)n2C)n1CCC(C)C	3%
33	CCN1CCN(C(=O)c2cc3c(=O)n(C)c4ccccc4c3n2C)CC1	-5%
34	CCOc1ccc(-c2nnc(N)o2)cc1	u
35	N#Cc1ccc(C23CC4(C2)[C@H](CN(Cc2ccc(-c5ccccc5)cc2)[C@@H]4c2ccccc2)C3c2ccc(Cl)nc2)cc1 (some centres undefined)	-11%
36	N#Cc1cn(CC(=O)NCCc2c[nH]c3ccccc23)c2ccccc12	7%
37	CCc1c(O)nc(SCc2ccccc2)n(C(C)CC)c1=O (centres undefined)	8%
38	COc1ccc(-c2cc(C(=O)Nc3c(C)nn(Cc4ccccc4Cl)c3C)no2)cc1	3%
39	COC(=O)c1ccc(C(NC(=O)c2ccccc2)[C@]2(C)C[C@H]2C2CCCCC2)cc1 (some centres undefined)	0%
40	CCN(CC)C(NC(=O)c1ccccc1)C(=O)c1ccccc1 (centres undefined)	-1%
41	CN(C)S(=O)(=O)c1ccc(C(=O)Oc2cc(=O)[nH]c3ccccc23)cc1	-10%
42	CCOC(=O)c1[nH]c(CSc2nnc(-c3ccc(OC)cc3)o2)c(C(=O)OCC)c1C	55%[activator]
43	CCOc1ccc(NC(=O)C2CC=CCC2C(=O)O)cc1 (centres undefined)	0%
44	CCOC(=O)N1CCN(C(=O)COc2ccccc2OC)CC1	1%
45	COc1ccc(-n2c(Cc3cccn3C)nnc2SCC(=O)Nc2cccc(C)c2C)cc1	3%
46	CC1CCN(S(=O)(=O)c2ccc(S(=O)(=O)NCC3COCCO3)cc2)CC1 (centres undefined)	2%
47	CCC(C(=O)NCCN1CCN(C)CC1)n1c(C)c2cnn(-c3ccccc3)c(=O)c2c1C (centres undefined)	10%
48	Nc1nnc(CCC2CCCCC2)s1	6%
49	COc1cccc(N(CC(=O)NC2CCCC2)C(=O)Cn2nnc(-c3ccc(C)cc3)n2)c1	7%
50	COc1ccc(Cn2nnc3c(=O)[nH]c(C(=O)NCCc4ccc(F)cc4)nc32)cc1OC	-4%
51	C=CCNC(=O)C1CC=CCC1C(=O)O (centres undefined)	13%
52	O=C(C1CC(=O)N(C2CCCC2)C1)N1CCC(Cc2ccccc2)CC1 (centres undefined)	6%
53	Cc1ccc(-n2c(Cc3cccn3C)nnc2SCC(=O)NC2CCCCC2)cc1	-4%
54	O=C(O)C1C2C=CC(C2)C1C(=O)NCc1ccoc1 (centres undefined)	-8%
55	CC(=O)Cc1nsc(NC(=O)C2Cc3ccccc3C(=O)O2)n1 (centres undefined)	-7%
56	CC(=O)OC1CC2C(C)(C)C(O)CC(O)[C@@]2(C)C2CC[C@@]3(C)C(=CC(=O)OC3c3ccoc3)[C@]12C (some centres undefined)	-2%
57	CCOCCc1nnc(NC(=O)Cc2ccccc2)s1	-21%
58	O=C(Nc1ccccc1N1CCOCC1)c1ccc2ccccc2n1	10%
59	O=C(c1ccco1)N1CCN(S(=O)(=O)c2cccs2)CC1	1%
60	Cc1ccc(OCC(=O)Nc2ccc(-c3nnc(-c4ccco4)o3)cc2)cc1	u
61	Fc1ccc(-c2nnc3ccc(N4CCc5ccccc5C4)nn23)cc1	u
62	CCN(CC)c1ccc(NC(=O)c2ccc(NC(=O)C3CCCO3)cc2)c(C)c1 (centres undefined)	2%
63	CCOC(=O)c1ccc(CNC(=O)C(Cc2c[nH]c3ccccc23)NC(C)=O)o1 (centres undefined)	8%
64	O=C(NCc1ccco1)C(c1ccc(F)cc1)N(Cc1cccnc1)C(=O)Cn1nnc2ccccc21 (centres undefined)	3%
65	CCOC(=O)c1c(C)[nH]c2ccc(O)cc12	-15%
66	FC(F)(F)c1ccc(CN2C[C@@H]3C(c4ccccc4)C4(c5ccccc5)CC3(C4)[C@H]2c2ccccc2)cc1 (some centres undefined)	-1%
67	O=C(Nc1ccc(OC(=O)c2ccncc2)cc1)c1ccncc1	17%
68	CCn1c(C(C)NC(C)=O)nc2ccccc21 (centres undefined)	1%
69	O=C(CSc1nnc(CNC(=O)c2cccs2)o1)NC1CCCCC1	-2%
70	O=S1(=O)CC(N2CCCCC2)C(N2CCCCC2)C1 (centres undefined)	1%
71	COc1ccc(-c2csc3nc(C)n(-n4cccc4)c(=O)c23)cc1	-11%
72	Cc1ccc(CS(=O)(=O)CCC(=O)NCCCOC(C)C)cc1	6%

(next part)
#	canonical_smiles	HSD17B inh
73	COc1ccc(NS(=O)(=O)c2cc(C)ccc2OC)cc1OC	2%
74	Cc1ccc2cc(CN(CCN3CCOCC3)C(=O)NCc3ccccc3)c(=O)[nH]c2c1C	u
75	CO[C@@H]1COC(=O)[C@H](CCSC)NC(=O)C/C=C\[C@@H](C)COC(=O)[C@@H]2CCCN2C(=O)C/C=C\[C@H]1C	1%[11.4 µM]
76	C=CCn1c(Cc2csc(N)n2)nnc1SCc1ccc(C(=O)OC)cc1	5%
77	Cc1nnc(SCC(=O)c2cc(C)n(-c3ccc4c(c3)OCO4)c2C)s1	-7%
78	Cc1c(C(=O)NCCCN2CCOCC2)sc2nc(-c3ccccc3)cn12	-10%
79	O=C(COCc1nc2ccccc2c(=O)[nH]1)NC1CCCC1	2%
80	Cn1c(=O)c2c(nc(Br)n2CCCc2ccccc2)n(C)c1=O	4%
81	CS(=O)(=O)N1CCC(C(=O)Nc2ccc(OCc3ccccc3)cc2)CC1	0%
82	CCOC(=O)CCC(NC(=O)c1ccc(NCN2C(=O)c3ccccc3C2=O)cc1)C(=O)OCC (centres undefined)	-6%
83	Cc1oc(C(=O)O)cc1COc1ccccc1Cl	7%
84	O=C(NCCc1ccc(Cl)cc1)c1ncn[nH]1	1%
85	NS(=O)(=O)c1ccc(NC(=O)CSC2CCCCC2)cc1	11%
86	CCCCCOC(=O)C1[C@H]2C(=O)N(Cc3cccs3)C[C@]23C=C[C@H]1O3 (some centres undefined)	2%
87	C=CCN1C(=O)NC2(CCCCC2)C1=O	4%
88	O=C(NC1CCCC1)C1CCCN1C(=O)Nc1ccc(Cl)cc1 (centres undefined)	2%
89	C[N+]1(C)CCO[C@](O)(c2ccccc2)C1	3%[11.4 µM]
90	CC(=O)N(C(C)=O)c1c(C#N)c(C)n(-c2ccccc2)c1C(=O)c1ccccc1	-2%
91	COc1ccc(NC(=O)c2cc3c(=O)n(C)c4ccccc4c3n2C)cc1OC	i
92	CC/C(O)=C(/C#N)c1nnc2n1CCCCC2	10%
93	CCn1ccnc1C[C@@H]1COc2ccccc2O1	-17%&-5%
94	Cc1ccc(S(=O)(=O)NCc2cccc([N+](=O)[O-])c2)cc1	3%[11.4 µM]
95	CCOCCCNC(=O)C1CCC(CNS(=O)(=O)c2cccc3nsnc23)CC1 (centres undefined)	-15%
96	CCN1CCN(C(c2cccs2)C(C)NC(=O)c2ccccc2OC)CC1 (centres undefined)	-1%
97	CC1CCN(S(=O)(=O)c2ccc(F)c(C(=O)O)c2)CC1	7%
98	Cc1c(Br)c(C(F)(F)F)nn1CC(=O)NCC1CCCO1 (centres undefined)	9%
99	Cc1csc(NC(=O)CSc2nc(C(C)C)nc3c2c(=O)n(C)c(=O)n3C)n1	0%
100	Cc1ccc(S(=O)(=O)N[C@H]2COC(=O)[C@H](C)COC(=O)[C@H](C)NC(=O)C/C=C\[C@H]2C)cc1	3%[11.4 µM]
101	COc1ccc(C2CCCN2C(=O)Nc2cccc(C(C)=O)c2)cc1OC (centres undefined)	6%
102	Cn1c(SCC(=O)Nc2nccs2)nnc1C12CC3CC(CC(C3)C1)C2	3%
103	COc1cc(C(=O)Nc2cc(C)c(OCC(=O)N3CCOCC3)c(C)c2)cc(OC)c1OC	0%
104	O=C(Cc1ccc(Cl)cc1)NCC(=O)N1CCCC1	1%
105	O=C(NCC(=O)N(CCN1CCOCC1)C(C(=O)NC1CCCC1)c1cccnc1)c1cccs1 (centres undefined)	-10%
106	Cc1c(C(=O)N2CCN(c3ccccn3)CC2)sc2ncnc(N3CCN(c4ccccc4)CC3)c12	2%
107	CCN(CC)CCNC(=O)c1ccc2c(=O)n(CCc3ccccc3)c(=O)[nH]c2c1	16µM*
108	CN1CCN(C(=O)c2ccccc2N(Cc2ccccc2)S(C)(=O)=O)CC1	9%

Of the compounds above, two contain bromine:
#	canonical_smiles	HSD17B inh
80	Cn1c(=O)c2c(nc(Br)n2CCCc2ccccc2)n(C)c1=O	4%
98	Cc1c(Br)c(C(F)(F)F)nn1CC(=O)NCC1CCCO1 (centres undefined)	9%

(cont.)
#	canonical_smiles	HSD17B inh
109	C=CCOc1c(Br)cc(CNn2nnnc2N)cc1OCC	-2%
110	Clc1ccc2nc(N3CCN(c4ccccc4)CC3)sc2c1	17%
111	COc1ccccc1C1/C(=C(/O)c2ccccc2)C(=O)C(=O)N1CCO (centres undefined)	-13%
112	O=C(Nc1ccc(Br)cc1Cl)c1cnccn1	-2%
113	COc1cc(C2C3=C(CC(C)(C)CC3=O)N(C)C(=O)N2C)cc(OC)c1OC (centres undefined)	4%
114	O=c1cc(CSc2nnc(COc3ccc(Cl)cc3)o2)c2ccccc2[nH]1	-4%
115	Cc1ccc(-n2c(O)cnc2Nc2nc(C)cc(C)n2)cc1	12%
116	O=C(O)/C(=C\c1ccc(O)cc1)c1cccc2ccccc12	5%[11.4 µM]
117	COC(=O)c1ccc(C(/C=C/[C@@H](C)C(=O)N[C@H](C)CO)NC(=O)OCc2ccccc2)cc1 (some centres undefined)	-2%
118	Cc1cccc(NC(=O)CN(C)S(=O)(=O)c2cccc3cccnc23)c1	-3%
119	CC(C)(CO[C@H]1C[C@H]2CC[C@@]1(C)C2(C)C)[N+](=O)[O-]	4%[11.4 µM]
120	CCOCC(=O)Nc1cc(-c2cn3cccnc3n2)ccc1C	32µM*
121	COCCSc1ccccc1C(=O)Nc1ccncc1	5%
122	Cc1cc2c(c(=O)n1CCc1ccccc1)C(C(C)C)C(C#N)=C(N)O2 (centres undefined)	4%
123	Cc1noc(/C=C/N(C)C)c1S(=O)(=O)N1CCN(c2ccccc2)CC1	-5%
124	Cc1cccc(Cn2c(C(C)O)nc3ccccc32)c1 (centres undefined)	2%
